Screens (PubChem BioAssay)
VDR inhibitor – vitamin D3 receptor (human) inhibition; AID 504847; Potency, µM, for the others: max response, negative = inhibition, actives largely listed as inhibitors; P11473; 400,000 tested, 0.93% active; VDR-SRC2-3 peptide fluorescence polarization, 2 h; active = well fitted inhibition curve with a large enough effect; inconclusive = small, poorly fitted or top-dose-only effect, or another doubt; inactive = no such curve, though single readings can be large or run the other way; also: series mostly up to about 120 µM
Target sequence (P11473 whole entry, looked up): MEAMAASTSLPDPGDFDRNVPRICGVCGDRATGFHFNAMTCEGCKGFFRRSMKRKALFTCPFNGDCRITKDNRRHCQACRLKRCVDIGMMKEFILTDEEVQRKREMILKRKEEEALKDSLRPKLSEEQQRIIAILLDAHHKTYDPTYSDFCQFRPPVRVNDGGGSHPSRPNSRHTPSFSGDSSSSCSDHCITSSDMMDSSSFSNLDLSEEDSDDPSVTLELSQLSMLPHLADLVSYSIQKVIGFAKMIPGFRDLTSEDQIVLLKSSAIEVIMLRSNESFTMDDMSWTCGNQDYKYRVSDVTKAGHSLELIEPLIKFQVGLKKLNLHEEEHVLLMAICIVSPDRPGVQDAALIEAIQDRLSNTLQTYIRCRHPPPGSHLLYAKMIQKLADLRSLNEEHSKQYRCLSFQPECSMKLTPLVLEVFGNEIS
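VDR–SRC2-3 interaction, FP format. Cmpds 23 nl via pintool, brief spin, 2 h ambient incubation.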
Starred values were filed as active, the others as inactive; ? = inconclusive; & = joins results of further samples; [ ] = remark or other dose. % is scaled to controls: 0 for no effect and ±100 for the full control effect; potency is read from the fitted curve at half-maximal effect.

SMILES	VDR inhibitor
OCC(CO)(CO)N=Cc1cc(Br)ccc1O	-2%
O=C(C1CCC(=O)N(C2CCCC2)C1)N1CCC(Oc2cccc(F)c2)CC1 (stereo not drawn)	-8%
COc1ccc(-n2nc3cc(C)c(NC(=S)NC(=O)c4ccccc4C)cc3n2)cc1	9%
CCn1c(SCC(=O)n2nc(C)cc2C)nnc1-c1ccc2c(c1)OCO2	-16%
CCN(CC)C(=O)CCCc1c[nH]c2ccccc12	-16%
CCOC(=O)c1ccc(NC(=O)c2ccc3c(c2)C(=O)N(Cc2cccnc2)C3=O)cc1	-9%
Cn1c(=O)c2c(nc(OCc3ccc4c(c3)OCO4)n2Cc2ccccc2Cl)n(C)c1=O	5%
CCOC(=O)c1cnc2ccc(C)cc2c1N(C)Cc1ccccc1	4%
Cc1ccc(N2CC(C(=O)NCc3cccs3)CC2=O)cc1 (stereo not drawn)	18%
Cc1nn(C)c(C(=O)NNC(=S)NCc2ccccc2)c1Cl	14%
COc1ccc(C(=O)Nc2ccc(NC(=O)c3ccccc3F)cn2)cc1	8%
Cc1nn(CC(=O)N2CCN(c3ccccc3)CC2)c(C)c1[N+](=O)[O-]	9%
CC(C)n1cc(CN2CCCC(CO)(Cc3cccc(Cl)c3)C2)cn1 (stereo not drawn)	3%
Oc1oc(-c2ccccc2)nc1/C=N/c1ccccn1	-9%
COCCCn1c(=N)c(C(N)=S)cc2c(=O)n3cccc(C)c3nc21	?
Cc1ccc(S(=O)(=O)N2CCN(c3ccc(S(=O)(=O)N4CCOCC4)cn3)CC2)cc1	-4%
COc1ncccc1C(=O)N1CCCC(C(=O)c2cccc(OC(C)C)c2)C1 (stereo not drawn)	-5%
COC(=O)C(C)Sc1nc(N)c(NC(=O)c2ccco2)c(=O)[nH]1 (stereo not drawn)	0%
O=C1c2ccccc2C(=O)N1CCC(O)C[N+](=O)[O-] (stereo not drawn)	0%
CCOC(=O)C1(Cc2ccccc2)CCN(Cc2cc(=O)c3ccccc3[nH]2)CC1	3%
Clc1ccc(-c2csc(N3CCc4ccccc4C3)n2)cc1	12%
COc1cc(C(=O)NCCOc2cc(C)cc(C)c2)c(Br)c(OC)c1OC	-14%
Cc1cc(N2C(=O)C=CC2=O)c([N+](=O)[O-])cc1C	32µM*
COc1ccc(C(=O)NC(=S)Nc2ccc(S(=O)(=O)Nc3cc(OC)ncn3)cc2)cc1	28%

Grouped by structure, the compounds so far with fluorine.
SMILES	VDR inhibitor
O=C(C1CCC(=O)N(C2CCCC2)C1)N1CCC(Oc2cccc(F)c2)CC1 (stereo not drawn)	-8%
COc1ccc(C(=O)Nc2ccc(NC(=O)c3ccccc3F)cn2)cc1	8%

The list goes on.
SMILES	VDR inhibitor
Cc1ccc(C(F)(F)F)cc1NC(N)=S	-8%
N#CN=c1snc(-c2ccccc2Cl)n1-c1ccc(F)cc1	-4%
CCOC(=O)C1CCCCN1S(=O)(=O)c1ccc2c(c1)CC(C)N2C(=O)C1CCC1 (stereo not drawn)	-9%
COc1ccc(C(CNC(=O)c2oc3ccc(OC)cc3c2C)N2CCCC2)cc1 (stereo not drawn)	1%
CCn1c2c(c(=O)n3ncc(C(=O)Nc4cccc(Cl)c4C)c13)CN(Cc1ccc(OC)cc1)CC2	-5%
COc1ccc(CNC(=O)CSc2nc(-c3ccc(OC)cc3)cc(C(F)(F)F)n2)cc1	-9%
COCCN1C(=O)c2ccc(C(=O)O)cc2C1=O	-9%
Cc1nc(NC(=O)/C=C/c2ccc(F)cc2)sc1C(=O)N(C)C	-24%
FC(F)(F)c1cccc(-c2nnc3ccc(C(F)(F)F)cn23)c1	-16%
O=S(=O)(c1ccc(SCCOc2ccc(F)cc2)nc1)N1CCCC1	-5%
CCNC(=O)OCC(CC)NC(=O)OCC(C)C (stereo not drawn)	1%
O=C(O)CCn1cc(-c2ccc(Cl)cc2)nc1-c1ccncc1	-20%

4 entries from above, arranged by the value under VDR inhibitor, highest first:
Structure	VDR inhibitor
N#CN=c1snc(-c2ccccc2Cl)n1-c1ccc(F)cc1	-4%
O=S(=O)(c1ccc(SCCOc2ccc(F)cc2)nc1)N1CCCC1	-5%
COCCN1C(=O)c2ccc(C(=O)O)cc2C1=O	-9%
Cc1nc(NC(=O)/C=C/c2ccc(F)cc2)sc1C(=O)N(C)C	-24%

Next results.
SMILES	VDR inhibitor
O=[N+]([O-])c1ccc2nccn2c1	-8%
CCOC(=O)c1nn(-c2ccc(F)cc2)c2nc(-c3ccccc3)c(C#N)c(=O)n12	-5%
O=C(c1csnn1)N1CCC[C@@]2(CCN(Cc3nccs3)C2)C1	1%
CCOC(=O)/C(C(N)=NCC(C)C)=C(/O)c1ccccc1	19%
O=C(Nc1cc(C(F)(F)F)ccc1N1CCCC1)c1ccc2c(c1)OCO2	23%
CCCCOC(=O)c1cc(=O)[nH]c2ccccc12	15%
COC(=O)c1ccccc1NC(=O)c1cccc(NC(=O)CSCc2ccccc2)c1C	-6%
O=C(NCCc1ccccc1F)c1ccc2c(c1)OCCO2	?
CCCc1nnc2c(N(C)S(=O)(=O)c3ccc(C)cc3)nc3ccccc3n12	-16%
NS(=O)(=O)c1cc([C@@]2(O)NC(=O)c3ccccc32)ccc1Cl	-3%
CC1Cc2cc(S(=O)(=O)NCc3ccccc3)ccc2N1C(=O)C1CC1 (stereo not drawn)	18%
CSCCC(NC(=O)c1cccc(C)c1)C(=O)OCC(=O)NC(=O)c1cccn1C (stereo not drawn)	-25%
Cc1c(C(=O)NCc2ccc3c(c2)OCO3)oc2ccc(Br)cc12	2%
Nc1cccc(C(=O)Nc2ccc3nc(-c4cccnc4)[nH]c3c2)c1	8%
CCCc1nnc(NC(=O)NCCN2C(=O)C3C4C=CC(C4)C3C2=O)s1 (stereo not drawn)	-20%
Cc1nn(C)c(C)c1NS(=O)(=O)c1ccc(Cl)cc1	-3%
Cc1n[nH]c(=O)c2c(NC(=O)COC(=O)Cc3ccc(Cl)cc3Cl)oc(C)c12	-15%
O=C(Nc1cc(-c2nc3ccccc3o2)ccc1Cl)c1ccc(N2CCCCC2)c([N+](=O)[O-])c1	-7%
COc1cccc(NC=C2C(=O)OC3(CCCCC3)OC2=O)c1	8%
CC(Sc1nnc2c(n1)[nH]c1ccccc12)C(=O)NC1CCCCC1 (stereo not drawn)	3%
Cc1nn(C)cc1CN(C)C(=O)c1nn2c(c1Br)NC(c1cccs1)CC2C(F)(F)F (stereo not drawn)	-2%
NC(=O)SCC(=O)Nc1cccc(Cl)c1	?
O=C(Oc1ccccc1C(=O)O)c1ccccc1O	-3%
COc1ccc(OC)c(NC(=O)C(C#N)=Cc2ccco2)c1	4%

With a hit mark in VDR inhibitor (from the list above):
SMILES	VDR inhibitor
Cc1cc(N2C(=O)C=CC2=O)c([N+](=O)[O-])cc1C	32µM*

Continued:
SMILES	VDR inhibitor
N#Cc1nc(-c2ccco2)oc1N1CCN(C(c2ccccc2)c2ccccc2)CC1	-5%
CC(C)OCCCn1c(SCC(=O)N2CCCC2=O)nc2ccccc2c1=O	13%
O=c1[nH]n(-c2ccc(Cl)cc2)c2ncccc12	-9%
Cc1ccc(CNC(=O)CCCC(=O)c2ccccc2)cc1	13%
COc1ccccc1C(=O)Nc1nc(N)n(-c2ccccc2)n1	21%
O=C(CSc1nnc(Nc2ccccc2)s1)NC1CC1	7%
CC(=O)NC(Cc1ccccc1)C(=O)Oc1ccc2ccccc2c1 (stereo not drawn)	-1%
COc1ccc(/C=N/NC(=O)CCc2n[nH]c(=O)[nH]c2=O)cc1O	-6%
COc1ccc(OC)c(NC(=O)Nc2cc(C(=O)O)ccc2C)c1	10%
Cc1ccc(C(=O)N2CCN(c3ccccn3)CC2)cc1Cl	3%
O=C(NCc1cccnc1)Nc1cccc(Cl)c1Cl	5%
COc1ccc(C(=O)O/N=C(\N)c2ccccc2)cc1	-15%
COCCNc1ccc(-c2nc(-c3cccc(C)c3)no2)cc1[N+](=O)[O-]	3%
Nc1ccnc(=O)[nH]1	-7%
Cc1cccc(N/C(=N\S(=O)(=O)c2ccccc2)C(F)(F)F)c1	-17%
CCCN(CC(=O)Nc1ccccc1C)C(=O)c1ccc(N2CCCCCC2)c([N+](=O)[O-])c1	-10%
CCC[C@@H](CN1CCC[C@H]1CN1C(N)=NC[C@H]1CC(C)C)N1C[C@@H]([C@H](C)CC)N(CCc2ccc(Cl)c(Cl)c2)C1=N	4%
CCc1nc(NCc2ccco2)c2oc3ccccc3c2n1	7%
COC(=O)CCC(C(=O)CN1C(=O)c2ccccc2C1=O)N1C(=O)c2ccccc2C1=O (stereo not drawn)	-17%
Cc1ccc(NC(=O)c2ccc(OC(=O)COc3cccc(Cl)c3)cc2)cc1	2%
COc1c(O)c(O)c2oc(-c3ccccc3)cc(=O)c2c1OC	3%
CCN1CCN(c2ccc(S(=O)(=O)N3CCCCC3)cc2NC(=O)c2cccc(F)c2)CC1	7%
COc1ccc2c(c1)OC[C@H]1[C@H]2N2C(=O)c3cc(C)ccc3NC(=O)[C@@]2(C)[C@H]1c1ccccc1	-26%
C#CCOCCOCCOCCNc1nc(N2CCN(C(=O)Cn3cc(CCCN=C(N)N)nn3)CC2)nc(N2CCN(C(=O)[C@H](CCCCN)n3cc(CCCC)nn3)CC2)n1	-5%
CC(C)=CCC[C@](C)(O)C1CC[C@]2(C)C1C(O)CC1[C@@]3(C)CCC(O)C(C)(C)C3C(O[C@@H]3OC(CO)C(O)C(O)C3O[C@@H]3OC(C)C(O)C(O)C3O)C[C@]12C (stereo partly drawn)	-17%
COc1c(O)ccc(/C=N\NC(=O)c2ccc3c(c2)OCO3)c1[N+](=O)[O-]	?
CN(c1ccccc1)S(=O)(=O)c1ccc(C(=O)N2CCc3ccccc3C2)cc1	6%
COc1ccc(OC(C)C(=O)N(C)Cc2nc(-c3cccc(C)c3)no2)cc1 (stereo not drawn)	9%
O=C1CC(c2ccccc2)=C(c2ccccc2)C1c1ccccc1 (stereo not drawn)	-17%
CCN(CC)C(=O)Oc1ccc2cc(Br)ccc2c1	-15%
CC1CCN(C(=O)CCCOc2cc(=O)n(C)c3ccccc23)CC1	10%
NC(=O)Nc1ccc(C(=O)OCC(=O)Nc2ccc(Cl)cn2)cc1	7%
CC1C(=O)Nc2ccccc2N1C(=O)c1ccc(Cl)cc1 (stereo not drawn)	-3%
O=[N+]([O-])c1ccc2c(c1)C(N1CCOCC1)/C(=C/COc1ccc3ccccc3c1Br)O2 (stereo not drawn)	-1%
O=[N+]([O-])c1cc(C=Nc2ccc3ccccc3c2)ccc1Br	-2%
O=C(COc1coc(CN2CCN(c3ccc(F)cc3)CC2)cc1=O)NCC1CCCO1 (stereo not drawn)	-5%
O=C(CSCc1cccc(Br)c1)N1CCOCC1	-5%
CCN(CC)c1ccc(C(=O)NNC(=O)CNC(=O)c2cccs2)cc1	-1%
CCCc1nc2ccccc2n1CCc1ccccc1	10%
COC(/C=C/Nc1ccc(Cl)cc1)=C(C#N)C#N	-20%
O=C(NNC(=O)c1cccnc1SCc1cccc([N+](=O)[O-])c1)c1ccccn1	-8%
CNc1cc(NS(=O)(=O)c2ccc(N)cc2)nc(NC)n1	-22%&-3%
COc1ccc(NC(=O)c2ccc(-c3ccc(-c4noc(C)n4)cc3C)cc2)cc1OCCN(C)C	22%&25%&17%
Cc1ccc(CN(C)C(=O)C2CCC(=O)N(CCc3ccccc3)C2)o1 (stereo not drawn)	-6%
CC(CN1C(C)CCCC1C)OC(=O)c1ccc(F)cc1 (stereo not drawn)	-9%
CN(CC(=O)N1CCCCCC1)S(=O)(=O)c1cccc2cccnc12	7%
COc1ccc(CNC(=O)c2cc3ccccc3oc2=O)cc1	38%[activator]
O=C(Cc1ccc([N+](=O)[O-])cc1)Nc1ccon1	7%

An excerpt of these results, with each value named:
O=C(NNC(=O)c1cccnc1SCc1cccc([N+](=O)[O-])c1)c1ccccn1
  VDR inhibitor: -8%
CNc1cc(NS(=O)(=O)c2ccc(N)cc2)nc(NC)n1
  VDR inhibitor: -22%&-3%

Next entries follow:
SMILES	VDR inhibitor
CCOC(=O)C1CCC(CN(Cc2ccc(Cl)cc2)S(=O)(=O)c2cccc(Cl)c2C)CC1 (stereo not drawn)	15%
CCOc1ccc(CSC2=NCCN2)cc1Cl	3%
CCc1cccc(C)c1N1C(=O)CN(Cc2ccccc2)C1=S	-3%
CCN1/C(=C2\C(=O)N(C)C(=S)N2C)C=Cc2cc(OC)ccc21	1%
CCOc1ccc(S(=O)(=O)NCC(=O)N(C)Cc2cccnc2)cc1	-2%
COc1ccc(NS(=O)(=O)c2cccc(C(=O)NCC(c3cccs3)N3CCOCC3)c2)cc1 (stereo not drawn)	-5%
COc1cc2nc(Nc3cccc(C)c3)nc(N)c2cc1OC	?
Cc1ccc(NC(=O)c2cccc3c2C(=O)N(C2CCCCC2)C3)c(Cl)c1	3%
Cc1cc(C)cc(NC(=O)CCc2nnc3n(CC(C)C)c(=O)c4ccccc4n23)c1	-3%
O=C(Cc1cccs1)N/N=C/C=C/c1ccco1	?
CS(=O)(=O)c1ccc(-n2nnc3ccccc32)c([N+](=O)[O-])c1	-1%
COc1ccc(C(=O)Nc2nc3c(s2)CCCC3)cc1S(=O)(=O)N1CCCc2ccccc21	-12%
COc1ccccc1CN(C)C(=O)c1cccc(S(=O)(=O)N2CCN(Cc3ccccc3)CC2)c1	-17%
Cc1ccccc1-n1c(=O)/c(=C\c2ccco2)s/c1=C(/C#N)C(=O)Nc1ccccc1	16%
COC(=O)[C@@]12CCCCN1[C@H](c1ccc(-c3ccc(Cl)c(Cl)c3)c(OC)c1)[C@@H]1C(=O)N(C)C(=O)[C@@H]12	-3%

Some of the compounds tested, so the mix of outcomes need not match the whole.
